# RVFV N-RNA FP: RVFV nucleocapsid-RNA interaction inhibition | P21700 | RVFV N-RNA binding, fluorescence polarization; active compounds read low | % bound, % (no concentration beside the values) | 0.1% of 20,000 active | AID 651828;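 active means between 0 and 58% in either replicate with normal brightness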;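 further: 100 nL library stock added to about 12 µL; 100% = protein and probe without compound and 0% = probe alone; numbers are from one replicate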
# Target sequence (P21700 whole entry, looked up): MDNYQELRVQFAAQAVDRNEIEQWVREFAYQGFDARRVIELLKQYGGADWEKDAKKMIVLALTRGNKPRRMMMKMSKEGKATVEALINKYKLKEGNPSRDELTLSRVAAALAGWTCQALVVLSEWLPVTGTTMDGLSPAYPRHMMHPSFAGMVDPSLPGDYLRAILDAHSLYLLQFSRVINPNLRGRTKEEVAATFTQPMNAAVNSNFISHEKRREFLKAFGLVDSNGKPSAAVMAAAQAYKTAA
# An asterisk follows results filed as active; & = joins results of further samples. Only part of the results is shown; count on the stated rates, not on these rows.
SMILES,RVFV N-RNA FP
COc1ccc(-n2c(SCC(=O)N3CCCc4ccccc43)nc3c(c2=O)SCC3)cc1OC,100
CCCC(C(=O)OCCN(CC)CC)(c1ccccc1)c1ccccc1,96
CNc1ccc(C(O)(C(F)(F)F)C(F)(F)F)cc1,96
COc1ccccc1N(CN1CCCC1=O)C(=O)COc1ccc(Cl)cc1Cl,91
CCOC(=O)C1CCCN(Cc2cn3c(-c4cccc(Br)c4)nnc3s2)C1 (configuration not stated),98
COc1cc(C(=O)O)cc(OC)c1OCc1cc(C(=O)O)oc1C,92
CC(=O)N1N=C(c2ccncc2)OC1c1cn(-c2ccccc2)nc1-c1cccs1 (configuration not stated),94
Cc1ccc(C(=O)Nc2cccc(C(=O)O)c2)cc1,100
N#CSCCCOc1ccc(Cl)cc1,99
Cc1cccn2cc(CNC(=O)CC3CCCCC3)nc12,100
NC(=O)C1CCN(C(=O)CSCc2ccc(Br)cc2)CC1,96
Cc1cc(Cn2cnc3c2C[C@@H](C(=O)O)N(C(=O)C(c2ccccc2)c2ccccc2)C3)ccc1N,96
Cc1ccc(/C=C2/NC(=O)N(Cc3ccc(Br)cc3)C2=O)o1,93
COc1ccc(N2CCN(C3CC(=O)N(CCc4ccccc4)C3=O)CC2)cc1 (configuration not stated),97
CCn1c2ccccc2c2cc(NS(C)(=O)=O)ccc21,92
O=P(/C(=N/O)Sc1ccccc1)(N1CCOCC1)N1CCOCC1,88
CN(C)S(=O)(=O)NC1CC(=O)N(c2ccc(F)cc2)C1 (configuration not stated),93
CN(C)c1ccc(/C=C/CN2CCCCCC2)cc1,94
CCCCCCCCCCCCCCCCCC(=O)OC(CC(=O)O)C[N+](C)(C)C (configuration not stated),94
O=C(CCN1C(=O)c2ccccc2S1(=O)=O)NCc1ccccc1,85
COC(=O)c1cc(S(=O)(=O)N(Cc2ccc(OC)cc2)Cc2cccn2C)oc1C,97
Oc1ccc2nnc3c(Br)cnn3c2c1,41*
CCCCN(Cc1ccccc1)c1ncnc2nc[nH]c12,107
CCC[C@@H]1C[C@@H](C(=O)N[C@@H]([C@H]2O[C@H](SC)[C@H](O)[C@@H](O)[C@H]2O)[C@H](C)Cl)N(C)C1,99&108
Cc1ccc(S(=O)(=O)NCC(O)c2ccccc2)cc1 (configuration not stated),94
O=C(Nc1ccccc1)OCN1C(=O)c2ccccc2C1=O,103
COC(=O)C1=C(C)NC(C)=C(C(=O)OC(C)C)C1c1cccc2nonc12 (configuration not stated),95
NO,96
O=C(COC(=O)c1ccc(Br)o1)c1ccc(Cl)c(Cl)c1,97
COC(=O)Nc1nc2ccc(Sc3ccccc3)cc2[nH]1,96
CC(=O)N[C@H](C(=O)O)C(C)(C)SN=O,95
CC1CN(C(=O)c2cc(F)c(F)cc2Cl)CC(C)O1 (configuration not stated),97
COc1ccc2cc(Br)ccc2c1CC(=O)N1CCOCC1,94
C=C(C)CN(CC)Cc1ccc(O)cc1,93
CC(=O)Nc1ncc2c(n1)CC(c1ccc(Cl)cc1)CC2=O (configuration not stated),102
CC(=O)O/N=C(\N)c1ccc(Br)cc1,92
O=c1c2ccccc2nc2c3ccccc3c(NCCO)nn12,92
COc1cccc(N2C(=O)/C(=C/C=C/c3ccco3)C(=O)NC2=S)c1,93
C/C(=N\Oc1nc(-c2ccccc2)ns1)c1cccs1,101
CCNC(=S)Nc1cccc(NC(=O)c2ccccc2O)c1,96
CC(O)C(=O)O (configuration not stated),97
COC(=O)C(N)Cc1ccc(Cl)cc1 (configuration not stated),84
Cc1ccc(N2C(N)=C(C#N)C(c3cccnc3)C3=C2CC(C)(C)CC3=O)cc1 (configuration not stated),92
Cc1ccc(-c2cc(-c3c(C)n[nH]c(=O)c3N)[nH]n2)cc1,101
Cc1cccn2c(=O)c(/C=C(\C#N)C(=O)N3CCCCC3)c(N3CCOCC3)nc12,110
COC(=O)C1=C(C)OC(=O)C1(NC(=O)C1CCCCC1)C(F)(F)F (configuration not stated),98
O=C(CC1CCCC1)NCc1cn2ccsc2n1,98
Cc1cc2c(=O)n(Cc3ccco3)c(SCC(N)=O)nc2s1,92
CCN(CC)S(=O)C12CC3CC(CC(C3)C1)C2 (configuration not stated),95
CCCN1CCC(NC(=S)Nc2ccc3c(c2)OCO3)CC1,101
Cn1c(=O)c2c(SCC(=O)NCC3CCCO3)nc(-c3ccccc3)nc2n(C)c1=O (configuration not stated),96
CSc1ccccc1C(=O)NCCCN1CCOCC1,100
O=C(NC(Cc1ccccc1)C(=O)O)c1ccccc1 (configuration not stated),96
CC1(C)CC(=O)C=C(NCc2ccc(S(N)(=O)=O)cc2)C1,103
CCN(CC)CCCN(c1ccccc1)C1Cc2ccccc2C1,101
CC1CN(C(=S)NCCc2ccccc2)CC(C)O1 (configuration not stated),105
O=C1c2ccc(Br)cc2C(=O)N1c1cc(Cl)ccc1O,93
CC(=O)NCc1nnc2c3ccccc3c(-c3ccccc3)nn12,99
Fc1ccc(N2CCN(CC3CCCCC3)CC2)cc1,87
O=C(CN(c1ccc2c(c1)OCCO2)S(=O)(=O)c1ccccc1)Nc1ccc(S(=O)(=O)N2CCOCC2)cc1,91

# 25 of these compounds, set out differently.
mol | RVFV N-RNA FP
CC(=O)O/N=C(\N)c1ccc(Br)cc1 | 92
O=c1c2ccccc2nc2c3ccccc3c(NCCO)nn12 | 92
COc1cccc(N2C(=O)/C(=C/C=C/c3ccco3)C(=O)NC2=S)c1 | 93
C/C(=N\Oc1nc(-c2ccccc2)ns1)c1cccs1 | 101
CCNC(=S)Nc1cccc(NC(=O)c2ccccc2O)c1 | 96
CC(O)C(=O)O (configuration not stated) | 97
COC(=O)C(N)Cc1ccc(Cl)cc1 (configuration not stated) | 84
Cc1ccc(N2C(N)=C(C#N)C(c3cccnc3)C3=C2CC(C)(C)CC3=O)cc1 (configuration not stated) | 92
Cc1ccc(-c2cc(-c3c(C)n[nH]c(=O)c3N)[nH]n2)cc1 | 101
Cc1cccn2c(=O)c(/C=C(\C#N)C(=O)N3CCCCC3)c(N3CCOCC3)nc12 | 110
COC(=O)C1=C(C)OC(=O)C1(NC(=O)C1CCCCC1)C(F)(F)F (configuration not stated) | 98
O=C(CC1CCCC1)NCc1cn2ccsc2n1 | 98
Cc1cc2c(=O)n(Cc3ccco3)c(SCC(N)=O)nc2s1 | 92
CCN(CC)S(=O)C12CC3CC(CC(C3)C1)C2 (configuration not stated) | 95
CCCN1CCC(NC(=S)Nc2ccc3c(c2)OCO3)CC1 | 101
Cn1c(=O)c2c(SCC(=O)NCC3CCCO3)nc(-c3ccccc3)nc2n(C)c1=O (configuration not stated) | 96
CSc1ccccc1C(=O)NCCCN1CCOCC1 | 100
O=C(NC(Cc1ccccc1)C(=O)O)c1ccccc1 (configuration not stated) | 96
CC1(C)CC(=O)C=C(NCc2ccc(S(N)(=O)=O)cc2)C1 | 103
CCN(CC)CCCN(c1ccccc1)C1Cc2ccccc2C1 | 101
CC1CN(C(=S)NCCc2ccccc2)CC(C)O1 (configuration not stated) | 105
O=C1c2ccc(Br)cc2C(=O)N1c1cc(Cl)ccc1O | 93
CC(=O)NCc1nnc2c3ccccc3c(-c3ccccc3)nn12 | 99
Fc1ccc(N2CCN(CC3CCCCC3)CC2)cc1 | 87
O=C(CN(c1ccc2c(c1)OCCO2)S(=O)(=O)c1ccccc1)Nc1ccc(S(=O)(=O)N2CCOCC2)cc1 | 91

# More structures.
SMILES,RVFV N-RNA FP
Cc1ccc(NC(=O)CN2C(=O)S/C(=C\c3cccc(O)c3)C2=O)cc1,91
CCOCCc1nnc(NC(=O)c2cccs2)s1,97
Cn1c(SCCC#N)nnc1-c1cccc(Cl)c1,93
C#CCOc1cccc2oc(CCC)cc(=O)c12,94
CCN(CC)S(=O)(=O)c1ccc(C(=O)NCCc2cc3ccc(OC)cc3[nH]c2=O)cc1,106
c1ccc(OCCn2c(-c3cccs3)nc3ccccc32)cc1,99
c1ccc(N2CCN(c3ncnc4scc(-c5cccs5)c34)CC2)cc1,95
Cc1ccc(/C(O)=C2\C(=O)C(=O)N(Cc3cccnc3)C2c2ccccn2)cc1 (configuration not stated),103
CSc1nc2sc3c(c2c(=O)n1-c1ccccc1)CCN(C)C3,86
O=c1[nH]c2ccccc2n1CCCN1CCN(C(c2ccccc2)c2ccccc2)CC1,94
CO[C@H]1/C=C/O[C@@]2(C)Oc3c(C)c(O)c4c(O)c(c5c(c4c3C2=O)NC2(CCN(CC(C)C)CC2)N=5)=NC(=O)/C(C)=C\C=C\[C@H](C)[C@H](O)[C@@H](C)[C@@H](O)[C@@H](C)[C@H](OC(C)=O)[C@@H]1C,94
CN(C)c1ccc(C(=O)OCC(=O)c2ccccc2Cl)cc1,95
Cc1cc(C(=O)/C(C#N)=C/Nc2ccc(Cl)cc2)c(C(F)(F)F)o1,85
Cc1ccc(OCc2nc(C#N)c(N(C)C)o2)cc1,94
CNC(=S)NNc1nncc2ccccc12,97
CS(=O)(=O)NN1C(=O)c2ccccc2NC12CCCC2,100
Cc1ccc(-c2cc(-c3ccccc3)nc(NN)n2)cc1,89
NCCS(=O)O,93
Cc1ccc(-c2nnn(CC(=O)NN)n2)cc1Cl,95
FC(F)(F)c1cccc(N=Cc2cccnc2)c1,97
CC(=O)N1CN(C(C)=O)CN(C(C)=O)C1,99
CC1(C)CC(=O)C=C(NNc2ccccn2)C1,96
O=C(O)C1=CC(=C(c2ccc(O)c(C(=O)O)c2)c2ccc(O)c(C(=O)O)c2)C=CC1=O,66
Cc1cc2c(=O)n(C)c(SCC(N)=O)nc2s1,93
CCCCOC(=O)Nc1ccc(I)cc1C,85
CN1CCN(C(CNC(=O)c2ccc(Cl)cc2)c2ccc3c(c2)OCO3)CC1 (configuration not stated),100
Cc1nc(C(=O)NCC(=O)c2ccccc2)c(C(F)(F)F)o1,93
Cc1ccc2c(c1)/C(=N/O)CC(O)(C(F)(F)F)O2 (configuration not stated),94
COc1ccccc1N1CCN(C(=S)NC(C)(C)C)CC1,94
COC(=O)c1ccc(CO/N=C(\C)c2ccc(Cl)cc2Cl)o1,92
Nc1ncccc1Cl,90
NC(=O)CSc1cn(CCNC(=O)c2ccccc2)c2ccccc12,93
Cc1ccc(Cn2c(CO)cnc2SCC(=O)Nc2nc(C)cs2)cc1,90
CC(C)(C)NC(=O)CSc1nnc(NC2=NS(=O)(=O)c3ccccc32)s1,88
Cc1c2cn[nH]c(=O)c2c(C)n1Cc1cccs1,91
Cn1c(O)c(C=Nc2ccc(Cl)cc2)c(=O)[nH]c1=O,103
Cc1ccc(C)c(-c2nnc(NC(=O)c3ccccc3S(C)(=O)=O)o2)c1,94
CC(C)(O)c1ccccc1CC[C@@H](SC1(CC(=O)O)CC1)c1cccc(/C=C/c2ccc3ccc(Cl)cc3n2)c1,99
Cc1csc2c(N3CCOCC3)ncnc12,94
CCN(CC)CCc1nc(-c2ccccc2)no1,101
Cc1ccc(-n2nnc3c(=O)n(CC#N)cnc32)cc1Cl,101
O=C(N/N=C/c1ccco1)c1cccc(N2CCCC2=O)c1,93
O=C(CN1CCN(CCN=Cc2c(O)[nH]c(=O)[nH]c2=O)CC1)Nc1ccc(Br)cc1,97
CCOc1cc2nccnc2cc1OCC,99
Cc1cccc(NC(=O)NCc2ccc3c(c2)cc(C)n3C)c1,96
CC12CC3CC(C)(C1)CC(C(=O)NC1=NCCS1)(C3)C2,92
COc1cc2c(cc1OC)C(C)N(C(=O)c1nccnc1C(=O)O)CC2 (configuration not stated),78
O=C(Nc1nc(-c2ccc3c(c2)OCCO3)cs1)c1ccc(Br)s1,99

# Among those listed so far, two contain a tert-butyl group:
SMILES,RVFV N-RNA FP
COc1ccccc1N1CCN(C(=S)NC(C)(C)C)CC1,94
CC(C)(C)NC(=O)CSc1nnc(NC2=NS(=O)(=O)c3ccccc32)s1,88

# Back to the main list, repeating the 2 entries before the break.
SMILES,RVFV N-RNA FP
COc1cc2c(cc1OC)C(C)N(C(=O)c1nccnc1C(=O)O)CC2 (configuration not stated),78
O=C(Nc1nc(-c2ccc3c(c2)OCCO3)cs1)c1ccc(Br)s1,99
CNS(=O)(=O)c1cc(Cl)ccc1Sc1ccccc1C(=O)O,96
N#C/C(=C\c1ccc(O)c(O)c1)C(=O)NCCc1ccccc1,95
COc1ccc(Br)cc1S(=O)(=O)NC(=O)/C=C/c1ccccc1Cc1ccc2ccccc2c1,93
O=C(Cc1ccc(F)cc1)Nc1nnc(-c2ccc(F)cc2)o1,89
C=C(C)CSc1nnc(CNC(=O)OC(C)(C)C)n1-c1ccccc1,88
COc1cccc(S(=O)(=O)Nc2ccc(C(=O)N3CCCCCC3)cc2)c1,97
CS(=O)(=O)NC12CC3CC(CC(C3)C1)C2,96
Fc1ccc(-c2cn3ccsc3n2)cc1,95
CCN=C1S/C(=C\c2ccc(O)c(OCC)c2)C(=O)N1CC,99
O=C(NC1CCCC1)c1ccccc1-c1nc(-c2ccc(Cl)cc2)no1,93
Cc1cc(=O)oc2c1c(C)nn2CN1CCN(C)CC1,93
CCOC(=O)c1nn(-c2ccccc2)c(C(=O)OCC)c1N(C(=O)CC)C(=O)CC,95
